MgrA-DNA mod: alters Staphylococcus aureus MgrA binding to DNA | fluorescence polarization | inhibition, %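 (about 10 µg/mL by stock and volumes)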 | 0.13% of 84,000 active | AID 602314;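 active = above 50% in either of two replicates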;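 note: 0% = protein plus DNA without compound and 100% = DNA alone without protein; higher means less MgrA bound to DNA so lower polarization; one replicate is shown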
S aureus helic: blocks Staphylococcus aureus DNA helicase; purified S. aureus helicase, fluorescence unwinding assay; about half of the hits fall short of the stated cut; inhibition, %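 (tested at about 80 µM)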; 0.05% of 120,000 active; AID 485395;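 active = both duplicates at 50% or more, or one of them with a favoured structure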;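 note: 0% = mean of negative control wells and 100% = mean of positive control wells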
The depositor's hits bear a star; . = no result given; & = joins results of further samples. Not all compounds are listed; the hit share may differ from the screen's.

SMILES	MgrA-DNA mod	S aureus helic
CN(C(=O)Oc1ccc(C(C)(C)C)cc1)c1ccccc1	1.6	-6.0
O=C1NC(=O)C2(CCOCC2)C(=O)N1	.	9.0
O=C(COC(=O)Cc1ccccc1)Nc1cccnc1Cl	.	-1.0
Cc1ccc(C(=O)Oc2cccc3cccnc23)cc1S(=O)(=O)N1CCC(C)CC1	4.3	.
Cc1ccc(Oc2c(C)nc(C)nc2OC(=O)N(C)C)cc1	0.0	.
CC12CCC3C(CC=C4CC(OC5CCCCO5)CCC43C)C1CCC2=O (stereo not given)	0.9	5.0
O=C1CC(c2ccccc2)CN1 (stereo not given)	.	5.0
CCOc1ccc2c(c1)C(SCC(=O)N1CCC3(CC1)OCCO3)CC1(CCCCC1)O2 (stereo not given)	.	9.0
O=[N+]([O-])c1ccc(Oc2ccc(Cl)cc2Cl)cc1	1.3	.
O=C1NC(=O)C(=Cc2cccs2)C(=O)N1	2.0	.

5 structures out of the list, ordered by number of heavy atoms, lowest first:
SMILES	MgrA-DNA mod	S aureus helic
O=C1CC(c2ccccc2)CN1 (stereo not given)	.	5.0
O=C1NC(=O)C2(CCOCC2)C(=O)N1	.	9.0
O=C(COC(=O)Cc1ccccc1)Nc1cccnc1Cl	.	-1.0
Cc1ccc(Oc2c(C)nc(C)nc2OC(=O)N(C)C)cc1	0.0	.
CCOc1ccc2c(c1)C(SCC(=O)N1CCC3(CC1)OCCO3)CC1(CCCCC1)O2 (stereo not given)	.	9.0

Later entries:
SMILES	MgrA-DNA mod	S aureus helic
CCCCC1(C)NCCN2C(=O)CSC21 (stereo not given)	.	-1.0
NCCc1c[nH]c2ccc(Cl)cc12	.	37.0
Cc1cccc(CNCCc2ccccc2)n1	-5.5	-2.0
CN1C(=O)N(C(=O)c2ccccc2)C(=O)C(C)(C2=CCCCC2)C1=O (stereo not given)	3.7	9.0
C=CCOC(=O)c1cc(-c2ccc(C=C3C(=O)N(C)C(=O)N(C)C3=O)o2)ccc1Cl	-1.2	.
CC12CCC3C4CCCC=C4CCC3C1CCC2O (stereo not given)	0.0	.
CNC(=O)O/N=C/c1[nH]ncc1Br	.	-16.0
O=C(c1cc2nc(-c3ccccc3)cc(-c3ccccc3)n2n1)N1CCC2(CC1)OCCO2	2.0	-12.0
COc1ccc2[nH]c3c(c2c1)CCNC3C (stereo not given)	-0.6	17.0
CN(C)C(=O)Oc1cccc2cccnc12	-1.9	0.0

Continued; it opens with the 5 that closed the last part.
SMILES	MgrA-DNA mod	S aureus helic
CC12CCC3C4CCCC=C4CCC3C1CCC2O (stereo not given)	0.0	.
CNC(=O)O/N=C/c1[nH]ncc1Br	.	-16.0
O=C(c1cc2nc(-c3ccccc3)cc(-c3ccccc3)n2n1)N1CCC2(CC1)OCCO2	2.0	-12.0
COc1ccc2[nH]c3c(c2c1)CCNC3C (stereo not given)	-0.6	17.0
CN(C)C(=O)Oc1cccc2cccnc12	-1.9	0.0
CCN=Cc1c(O)n(C)c(=O)n(C)c1=O	2.5	2.0
O=C1C=CC(=O)c2c(O)cccc21	0.3&19.6	.
CC(C)(C)NC(=O)/C=C/c1ccc(Cl)cc1	1.6	23.0
NC1CN2CCC1CC2 (stereo not given)	.	-24.0
O=C(Nc1ccncc1)c1cc2cccnc2n(Cc2ccccc2)c1=O	.	0.0
Cc1cnc(C(=O)Nc2ccc(Cl)cc2C(=O)c2ccccc2)cn1	-1.1	-7.0
CC1CC[C@]2(NC1)O[C@H]1C[C@H]3[C@@H]4CC[C@H]5C[C@@H](O)CC[C@]5(C)[C@H]4CC[C@]3(C)[C@H]1[C@@H]2C (stereo not given in full)	4.2	.
CN1C2C=C3[C@H](C1CC2)[C@@H](c1ccc(Cl)cc1)C(C#N)=C(N)C3(C#N)C#N (stereo not given in full)	-0.5	-14.0
c1cnc2c(OCC3CCCN4CCCCC34)cccc2c1 (stereo not given)	-0.9	0.0
CC(C)C/C(=N/O)c1c[nH]c2ccccc12	.	-35.0
CC12C/C(=C\c3ccccc3)C(=O)C[C@]1(C)CCC1C2CCC2(C)C1CC[C@]2(C)O (stereo not given in full)	0.8	.
CCCC(=O)N1CCC2(CC1)OCCO2	3.0	15.0
CCN1CCN(C(=S)N[P+](c2ccccc2)(N(CC)CC)N(CC)CC)CC1	.	-18.0
C=CC1CN2CCC1CC2C(OC(=O)c1ccco1)c1ccnc2ccccc12 (stereo not given)	0.2	10.0
CN1C(=O)C(=Cc2ccccc2OCCOc2ccc([N+](=O)[O-])cc2)C(=O)N(C)C1=O	0.9	.
O=C1CSC(c2ccccc2Cl)c2cc(Cl)ccc2N1 (stereo not given)	-2.1	.
O=C(O)Cn1cc(C(=O)c2ccccc2F)c2ccccc21	-0.1	-2.0
Fc1cccc(Cl)c1C1N2CCCCN12 (stereo not given)	-1.6	5.0
N#Cc1ccc(/C=C/[N+](=O)[O-])cc1	-2.1	.
c1cc2c(cc1N1CCNCC1)OCCO2	-4.2	1.0
CCNc1cc2oc(=O)cc(C(F)(F)F)c2cc1C	.	-24.0
C=CCCN1CC2C[C@@H](C1)Cn1c2cccc1=O	-4.6	11.0
Cc1ccc(OC(=O)N(C)C)c(CN(C)C)c1	.	-19.0
Cc1ccc(C(=O)C(C)c2c(O)c3ccccc3oc2=O)c(Cl)c1 (stereo not given)	-2.9	.
O=C(O)c1ccccc1C(=O)Nc1cccc2ccccc12	.	8.0
S=P(Nn1cnnc1)(c1ccccc1)c1ccccc1	.	-9.0
CCN1C(=O)NC(=O)/C(=C\c2cn(CC(=O)N3CCCCC3C)c3ccccc23)C1=O (stereo not given)	14.6	8.0
Cc1c(C(=O)O)cc(-c2ccccc2)n1Cc1ccccc1	1.5	4.0
OC1(c2cccnc2)CCNCC1	-27.3	-3.0
CCOc1ccc2oc(C(=O)NN3C(C)CCCC3C)c(C)c2c1 (stereo not given)	.	-12.0
CC(C)C(=O)c1cn(Cc2ccccc2C#N)c2ccccc12	-2.9	2.0
CC12CCC3C(CCC4=CC(=O)CCC43CO)C1CCC2OC(=O)c1ccccc1 (stereo not given)	-3.2	.
C=CCN1C(=O)C2(C(C(=O)OCC)=C(N)Oc3ccccc32)c2c1c1ccccc1oc2=O (stereo not given)	0.1	5.0
CCOc1ccc(NC2=NCCCS2)cc1	-0.6	-5.0&15.0
Cc1cc(Br)c2[nH]cc(CCN)c2c1	-2.1	4.0
O=P(NC1CCCCC1)(NC1CCCCC1)Oc1ccccc1	.	-18.0
CC12CCC3C(CCC45CC(=O)CCC34C5)C1CCC2=O (stereo not given)	.	9.0
NCCc1ccc(OC(F)F)cc1	.	-5.0
CNC(=O)c1ccc(/C=C2/C(=O)C3CCN2CC3)cc1	-0.8	.
O=C1CSC(c2ccccc2)c2c(-c3ccccc3)nn(-c3ccccc3)c2N1 (stereo not given)	-0.6	7.0
O=C1NC(=O)C(=Cc2cccc3ccccc23)C(=O)N1	17.8	.
O=C(CCNS(=O)(=O)c1ccccc1)Nc1ccc(Br)cc1C(=O)c1ccccc1	-0.6	-16.0
CCc1nn2c(=O)cc(N3CCNCC3)nc2s1	.	8.0
CCOC(=O)c1c(N)n(Cc2ccccn2)c2nc3ccccc3nc12	.	-5.0
COc1cc[n+](OC(=O)N2CCCCC2)c(C)c1	3.6	5.0
CN(C)c1cccc(N2Cc3ccccc3C2=N)c1	-1.8	-20.0
Cc1ccc(NC(=O)c2cccc(OC(=O)N(C)c3ccccc3)c2)cc1C	0.0	-11.0
O=C1OCC23C=CC(CC2)CC13 (stereo not given)	-1.7	.
CC12CCC3C(CC4OCC35CCC(O)C[C@]45Br)C1CCC2O (stereo not given in full)	-2.1	.
OC1/C(=C/c2ccccc2)N2CCC1CC2 (stereo not given)	-0.1	0.0

One compound at a time (already shown). Order of values: MgrA-DNA mod	S aureus helic
NCCc1c[nH]c2ccc(Cl)cc12 is entered as .	37.0
O=C(Nc1ccncc1)c1cc2cccnc2n(Cc2ccccc2)c1=O is entered as .	0.0

The list goes on.
SMILES	MgrA-DNA mod	S aureus helic
COc1ccc(CN)cc1OC	.	-15.0
CC(C)N(C(C)C)C1N=C(c2ccccc2)c2cc(Cl)ccc2N(C)C1=O (stereo not given)	0.9	.
NC1C[C@H]1c1ccccc1 (stereo not given in full)	1.6	.
Cc1ccc(N2C(=O)CC(=O)NC2=S)cc1	.	-27.0
COc1ccc(OC)c(NC2=NCCS2)c1	-2.1	.
Cc1[nH]c2ccccc2c1CCNCC(C)(C)C	-3.5	0.0
O=C(O)COc1ccccc1	.	-14.0
CC(C)OC(=O)Nc1ccccc1	-1.1	10.0
CCOc1ccc(Br)cc1/C=C(\C)[N+](=O)[O-]	5.3	.
O=C1NC(=O)C(=Cc2ccc(N3CCOCC3)cc2)C(=O)N1	0.3	0.0

Laid out differently: 2 of the compounds above.
CC(C)OC(=O)Nc1ccccc1
  MgrA-DNA mod: -1.1
  S aureus helic: 10.0
CC(C)N(C(C)C)C1N=C(c2ccccc2)c2cc(Cl)ccc2N(C)C1=O (stereo not given)
  MgrA-DNA mod: 0.9
  S aureus helic: .

Next part
SMILES	MgrA-DNA mod	S aureus helic
C=CCC1(NCCc2ccccc2)CCCCC1	-1.1	.
O=C(Cn1nc(-c2ccccc2)ccc1=O)N1CCC2(CC1)OCCO2	.	8.0
CSc1ccc(/C=C2\C(=O)C3CCN2CC3)cc1	-2.2	.
CC12CC(=O)C3C(CCC4=CC(=O)CCC43C)C1CCC2=O (stereo not given)	-1.5	.
